Mtb H37Rv: M. tuberculosis H37Rv growth inhibitors, H37Rv strain (AID 1626) | M. tuberculosis H37Rv growth inhibition; higher % means a stronger effect | inhibition, % at 10 µM, or IC50 in µM where a hit was titrated | 0.95% of 220,000 active;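 active = confirmed in a dose series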;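 note: bacteria incubated seven days before Alamar blue readout; 0% = bacteria only wells and 100% = bacteria with antibiotic wells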
YopH inh: inhibitors of Yersinia enterocolitica YopH tyrosine phosphatase; fluorescence Ex485/Em525; 0.16% of 140,000 active; inhibition, %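 (about 10 µM by stock and volumes)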;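 active = inhibition of 50% or more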;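 note: controls were vehicle for no effect and minimum signal wells for full effect; inactives centre near -20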
Mtb bLac sens: beta-lactam sensitization of Mtb H37Rv. M. tuberculosis H37Rv growth with meropenem, percent inhibition; hits of this screen are not shown here. inhibition, % at 25 µM. 0.27% of 330,000 active;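 active = about 74% or more and at least 40 points above the plate without the antibiotic, then above 30% in a dose series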;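 note: growth measured after seven days incubation then overnight dye step; 0% = bacteria only wells and 100% = bacteria with antibiotic; twin plates without the antibiotic show which effects depend on it; some results filed as inactive read as strong as hits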
Arbovirus anti: blocks arbovirus infection. AID 1251. 0.37% of 200,000 active. inhibition, % at 10 µM. arbovirus infection cell-based antiviral screen;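 active = inhibition from about 30%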;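 note: bluetongue infection of BSR cells; cell survival read as ATP light after 72 h; 0% = infected wells without compound and 100% = uninfected wells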
RecA splice inh: inhibitors of M. tuberculosis RecA intein splicing | P9WHJ3 | cell-free RecA intein splicing, fluorescence | inhibition, %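 (about 9 µM by stock and volumes)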 | 0.75% of 290,000 active; in the data active = inhibition above about 30%;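 note: 0% = vehicle wells and 100% = reference inhibitor control wells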
Target sequence (P9WHJ3 whole entry, looked up, canonical isoform): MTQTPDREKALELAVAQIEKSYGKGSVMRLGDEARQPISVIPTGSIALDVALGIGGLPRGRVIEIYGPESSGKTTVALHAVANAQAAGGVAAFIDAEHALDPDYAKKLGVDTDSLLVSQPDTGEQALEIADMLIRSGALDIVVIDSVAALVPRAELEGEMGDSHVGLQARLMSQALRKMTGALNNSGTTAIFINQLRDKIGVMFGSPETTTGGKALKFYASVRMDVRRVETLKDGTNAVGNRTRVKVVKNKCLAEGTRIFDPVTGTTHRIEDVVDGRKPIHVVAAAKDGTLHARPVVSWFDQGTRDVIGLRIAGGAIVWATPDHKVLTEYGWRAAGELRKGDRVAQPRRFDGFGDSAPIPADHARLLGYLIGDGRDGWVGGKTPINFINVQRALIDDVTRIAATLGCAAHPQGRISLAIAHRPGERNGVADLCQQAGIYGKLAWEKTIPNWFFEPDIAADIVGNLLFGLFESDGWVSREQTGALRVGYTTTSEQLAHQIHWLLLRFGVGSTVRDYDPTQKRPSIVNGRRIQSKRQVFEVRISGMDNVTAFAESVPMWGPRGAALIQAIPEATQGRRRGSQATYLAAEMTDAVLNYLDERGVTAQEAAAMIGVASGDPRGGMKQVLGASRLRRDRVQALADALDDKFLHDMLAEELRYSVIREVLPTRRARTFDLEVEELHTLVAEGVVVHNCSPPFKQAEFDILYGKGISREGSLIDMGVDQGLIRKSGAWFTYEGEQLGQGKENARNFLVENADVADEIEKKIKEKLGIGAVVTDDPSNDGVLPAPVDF
Arbovirus anti repeat: also measured in Arbovirus anti; calls as there; inhibition, %; measured here: 10K subset replicate screen; many hits read low in the repeat;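 first of two repeat runs on a subset; 0% = infected and 100% = uninfected wells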
Starred values were filed as active, the others as inactive; x = not tested or not shown. Some of the compounds tested. The share of hits here may be higher or lower than overall.

SMILES	Mtb H37Rv	YopH inh	Mtb bLac sens	Arbovirus anti	RecA splice inh	others
CCC(C)C(NC(N)=O)C(=O)Nc1ccc(S(=O)(=O)Nc2ccc(OC)cc2)cc1 (configuration not stated)	x	x	-4.7	5.1	-0.7
O=C(O)/C=C/c1cnc2ccccc2n1	3.9%	x	-3.3	8.2	4.0
O=C(NCC(=O)N(c1ccc(F)cc1)C(C(=O)NC1CCCC1)c1ccncc1)c1ccco1 (configuration not stated)	x	x	-1.3	x	3.0
CC(C)n1cc(CN2CCN(CCc3ccccc3)C(CCO)C2)cn1 (configuration not stated)	-0.1%	x	-4.7	-1.8	-1.0
COc1ccc(NC(=O)C2Cc3ccccc3O/C2=N\O)cc1 (configuration not stated)	x	x	3.0	x	-0.4
CCOc1ccc(S(=O)(=O)Nc2ccc(C(=O)NCC(C)(C)N3CCOCC3)cc2)cc1	x	x	-8.5	x	-3.3
COc1ccc(N2CCN(CNC(=O)c3ccccc3)CC2)cc1	x	x	-1.0	x	-1.9
Cc1cc2c(cc1C)NC(CC(=O)NCc1ccccc1)C(=O)N2 (configuration not stated)	1.2%	-25.5	2.6	1.7	-1.1
O=C(c1ccc(-c2cccc(C(F)(F)F)c2)o1)N1CCCCCCC1	x	x	3.6	x	5.1
COc1cnc(-c2ccccc2)nc1Oc1cccc(C)c1C	14.5%	-18.5	3.5	-7.1	11.9
CCCc1nc2ccccc2c(C(=O)OCC(=O)NCc2ccc3c(c2)OCO3)c1CC	12.3%	-1.0	-4.6	-26.3	x
CCn1c(SC)nc2c(c1=O)SC(C)C2 (configuration not stated)	4.4%	-43.4	0.4	0.5	3.8
COc1cccc2cc(C(=O)N(C)C)c(=O)oc12	-4.2%	14.1	-10.1	5.3	1.7
Cc1ccc(S(=O)(=O)N=Nc2c(O)[nH]c3ccccc23)cc1C	-0.1%	-4.9	2.8	-6.7	-4.0
CCN(CC)S(=O)(=O)c1ccc(C(=O)NCCSc2c[nH]c3ccccc23)cc1	16.6%	-12.3	0.2	-16.9	3.8

4 compounds already listed, arranged by SMILES length, largest number first.
SMILES	Mtb H37Rv	YopH inh	Mtb bLac sens	Arbovirus anti	RecA splice inh	others
CCOc1ccc(S(=O)(=O)Nc2ccc(C(=O)NCC(C)(C)N3CCOCC3)cc2)cc1	x	x	-8.5	x	-3.3
Cc1ccc(S(=O)(=O)N=Nc2c(O)[nH]c3ccccc23)cc1C	-0.1%	-4.9	2.8	-6.7	-4.0
Cc1cc2c(cc1C)NC(CC(=O)NCc1ccccc1)C(=O)N2 (configuration not stated)	1.2%	-25.5	2.6	1.7	-1.1
COc1ccc(N2CCN(CNC(=O)c3ccccc3)CC2)cc1	x	x	-1.0	x	-1.9

Next part.
SMILES	Mtb H37Rv	YopH inh	Mtb bLac sens	Arbovirus anti	RecA splice inh	others
COc1ccc(S(=O)(=O)N2CCC(N3CCCC3)CC2)cc1	x	x	-3.1	x	1.9
O=C(Oc1ccccc1C(=S)N1CCOCC1)c1ccc([N+](=O)[O-])cc1[N+](=O)[O-]	x	x	42.6	x	-2.2
Cc1ccc(-n2cc(-c3ccccc3)c3c(NN4CCOCC4)ncnc32)cc1	17.5%	-6.4	73.7	-18.4	6.7
COc1ccc(O)c(CN2CCCC(N3CCc4ccccc4C3)C2)c1 (configuration not stated)	x	x	-1.1	x	-5.9
COc1ccc(NC(=O)Cn2c3ccc(OC)cc3c3nc4n(c(=O)c32)CCS4)cc1	x	x	-1.7	x	-2.3
O=C(Nc1cc(=O)[nH]c2ncnn12)c1ccccc1Cl	3.2%	-30.7	7.3	-2.3	6.1
O=C(COC(=O)c1cncc(Br)c1)NCc1ccc2c(c1)OCO2	-3.2%	x	3.8	-1.1	-0.3
CC(C)(C)c1ccc(OCCCC(=O)Nc2ccc(S(N)(=O)=O)cc2)cc1	57.1%	x	13.1	1.3	3.2
CCOCCCNc1nc2ccccc2[nH]1	-5.2%	-11.9	0.1	2.8	-2.2
CCCCCCCNC(=O)C1(CC2CC(c3ccc(Cl)cc3)=NO2)CCN(C(=O)OC(C)(C)C)CC1 (configuration not stated)	x	x	-7.8	x	3.4
Cc1ccc(CSc2ncnc3onc(C)c23)cc1	3.0%	x	-15.5	x	1.5
CCOc1cc(C2CC(=O)Nc3cc(C)c(C)cc32)ccc1O (configuration not stated)	10.4%	-31.4	-7.1	5.9	0.5
O=C(NC(=S)NNC(=O)c1ccccc1[N+](=O)[O-])c1ccccc1	-6.6%	-53.9	-22.1	11.7	5.3
Clc1nc(Nc2ccc(N3CCOCC3)cc2)c2ccccc2n1	-1.1%	x	3.5	-6.8	-0.9
CCOc1cc(N2CCOCC2)c(OCC)cc1NC(=O)COC(=O)CCOc1ccc(C)cc1	x	x	-3.3	x	-2.7
CCc1ccc(CN(C)C(=O)c2cc(COc3cc(C)c(Cl)c(C)c3)on2)nc1	x	x	60.2	x	-5.5
Cc1onc(-c2c(F)cccc2Cl)c1C(O)c1ccc(F)cc1 (configuration not stated)	-4.1%	x	-6.3	x	2.9
COc1ccc(NC(=O)c2ccc(COc3ccccc3)o2)c(OC)c1	x	x	76.2	x	1.3
CCOc1ccc(C(=O)NC2=NCCS2)cc1	-0.6%	x	4.2	2.5	-2.3
O=[N+]([O-])c1cc(CN2CCN(c3ccccc3)CC2)c(O)c2ncccc12	77.9%	x	-3.4	-25.7	0.1
CCOC(=O)C(NC(C)=O)C(=O)Nc1ccc(C(C)(C)C)cc1 (configuration not stated)	-1.0%	x	-4.2	0.2	0.0
CCN(CC(=O)Nc1ccc(NC(C)=O)cc1)C(=O)C12CC3CC(CC(Cl)(C3)C1)C2	x	x	-8.6	x	-2.1
Cc1onc(-c2c(F)cccc2Cl)c1C(=O)Nc1cccc(Cn2cccn2)c1	1.1%	-21.0	-4.3	-5.6	3.4
COC(=O)C1=NNCC12CC(=O)N(c1ccc(Br)cc1)C2=O (configuration not stated)	2.0%	-6.1	-0.2	2.1	-0.4
CC(C)c1ccc(NC(=O)CSc2ncccc2C(=O)Oc2cccc([N+](=O)[O-])c2)cc1	1.3%	-12.7	-2.3	-11.4	0.2
CCOc1ccccc1NC(=O)[C@@H](NC(=O)c1cccc(S(=O)(=O)N2CCOCC2)c1)C(C)C	0.1%	x	4.0	1.6	-0.2
O=C(CCN1C(=O)/C(=C/c2ccc(Cl)cc2)SC1=S)NC1C=CS(=O)(=O)C1 (configuration not stated)	x	x	-1.9	x	2.3
N/C(=N\OC(=O)Cc1ccc([N+](=O)[O-])cc1)c1cccc(Br)c1	1.2%	x	-7.4	7.4	-2.0
C/C(=N/OCO/N=C(\C)c1ccccc1)c1ccccc1	10.1%	-14.9	-4.8	0.6	1.5
O=C(Nc1ccccc1)c1ccccc1CCc1ccccc1	1.9%	10.7	13.2	-1.7	-1.2
CC(=O)OC(C(=O)NC1CCCCC1)c1ccccc1 (configuration not stated)	2.0%	-33.3	-7.5	4.0	-1.7
CCOC(=O)C1CCN(Cc2ccc(F)cc2)CC1	4.1%	-21.6	-13.9	-2.0	x
CCOc1ccc(CCNc2nc3ccc(C)cc3n3cnnc23)cc1OCC	x	x	6.2	x	-0.8
C/C(=C\C(=O)c1ccccc1)Nc1ccc(N2CCOCC2)cc1	-2.2%	-2.1	-3.6	-11.0	0.0
CCCCCCc1nnc(NC(=O)c2ccco2)s1	x	x	-0.8	x	3.1
Cc1ccc(OC(C)C(=O)Nc2ccccc2C(=O)N2CCOCC2)cc1 (configuration not stated)	x	x	0.7	x	1.4
O=C1CCC(=O)N1CCC(c1ccc(F)cc1)c1ccco1 (configuration not stated)	-3.6%	26.7	-5.3	3.2	-1.9
C(=N\Nc1nc2ccccc2[nH]1)/c1ccc2c(c1)OCO2	1.6%	x	x	5.7	-0.3
CCOc1cc(C(=O)NC2CCCCCCC2)cc(OCC)c1OCC	x	x	4.1	x	3.8
COC(=O)c1ccc(CSc2nnc(NC(=O)C3CCCO3)s2)cc1 (configuration not stated)	-8.0%	-10.0	-2.9	25.9	4.2
COc1cccc(-n2c(O)c(C=NCc3ccc4c(c3)OCO4)c(=O)[nH]c2=O)c1	-0.1%	-48.5	-5.2	-5.2	-1.7
O=C(N/N=C\c1c(O)ccc2ccccc12)c1ccc(Cn2cccn2)o1	-5.2%	21.1	15.9	-33.2	-5.8
Cc1ccc(C2=[N+]([O-])C(C)(C)N(O)C2(C)C)cc1	-0.9%	-26.0	0.2	-7.3	-3.2
CCCCc1ccc(NC(=O)CSc2nc(=O)n(CCN3CCOCC3)c3c2CCC3)cc1	x	x	2.8	x	0.7
Cc1ccc(NS(=O)(=O)c2ccc3c(c2)oc(=O)n3C)cc1	x	x	-4.0	x	-1.7
CC1=Nc2ccc(C)cc2/C1=C/c1c(N)n2nc(CC(=O)N3CCOCC3)sc2nc1=O	x	x	-4.2	x	-3.0
CCOC(=O)c1ccc(N2C(=O)CC(N3CCN(C(=O)c4ccccc4)CC3)C2=O)cc1 (configuration not stated)	-11.4%	x	-11.7	4.1	1.6
CCC(C)(C)NC(=O)C(OC(=O)c1ccco1)c1ccccc1OC (configuration not stated)	2.2%	-20.5	-5.8	-2.5	2.2
Cc1ccc(NC(=O)CCN2C(=O)CSC2=O)cc1	-2.4%	-22.8	-7.2	5.3	0.2
Cc1ccccc1OCCn1cc(C(=O)O)c2ccccc21	3.8%	x	4.6	13.1	2.4
COc1ccc(CCNC2=CC(=O)N(c3ccc(F)cc3)C2=O)cc1	2.9%	x	-1.6	21.7	-3.3
O=C(O)COc1cccc(NC(=O)c2ccccc2)c1	-12.6%	-8.8	-11.1	-1.0	0.0
COc1ccc(OC)c(CC(NC(C)=O)C(=O)NC2CCN(c3nnnn3-c3ccccc3)CC2)c1 (configuration not stated)	-9.8%	x	-9.7	x	-1.6
O=C(O)c1cccc(S(=O)(=O)Nc2ccc(O)c(Sc3nc4ccccc4s3)c2)c1	1.2%	x	-1.8	2.6	-2.9
O=C(Nn1cnnc1)c1csc2ccccc12	5.4%	-22.1	-6.6	4.0	1.8
O=C(CNC(=O)Cn1cnc2sc3c(c2c1=O)CCCC3)NCc1ccccn1	-0.6%	-2.2	3.5	3.6	0.1
O=C(NCCCN1CCCC1=O)C(=O)NCC1OCCN1S(=O)(=O)c1ccc(Cl)cc1 (configuration not stated)	x	x	-4.3	x	-2.6
C=CCn1c(CSCc2ccc(Cl)cc2Cl)nnc1SCC(=O)Nc1ccc(C(=O)O)cc1	-0.5%	x	-6.2	x	2.2
COc1ccc(C2=NOC(C)(c3nnc(-c4ccccc4)o3)C2)cc1 (configuration not stated)	0.8%	x	-15.1	x	4.4
Cc1ccccc1NC(=O)Cn1c(=O)n(CC2CCCO2)c(=O)c2ccccc21 (configuration not stated)	-12.9%	x	-4.9	4.8	-3.5
The listing continues:
SMILES	Mtb H37Rv	YopH inh	Mtb bLac sens	Arbovirus anti	RecA splice inh	others
CC(=O)Nc1ccc(Sc2ccccc2C(=O)N2CCCC2)cn1	2.3%	x	-7.6	12.2	4.2
Cc1ccc(CN(CC(=O)NC(C)(C)C)C(=O)CNC(=O)c2cccs2)cc1	-9.5%	x	-2.3	2.7	-0.2
CC(C)c1nnc(NC(=O)CN2C(=O)c3ccccc3C2=O)s1	0.3%	-35.2	3.7	-3.5	-0.5	Arbovirus anti repeat=-1.4
CCN1C(=O)C(CC(=O)N2CCN(C(c3ccccc3)c3ccccc3)CC2)N(CC)C1=O (configuration not stated)	-0.5%	-27.3	-7.5	-2.9	0.9
CC(C)(C)NC(=O)COc1ccc(CNCc2ccccn2)cc1	-5.6%	x	1.8	0.3	6.1
COc1ccc(N/N=C(\C#N)C(N)=O)cc1	6.8%	-0.4	-3.0	-12.0	2.3
CCN(Cc1ccccc1)C(c1cc2cc(C)cc(C)c2[nH]c1=O)c1nnnn1CCOC (configuration not stated)	2.9%	-13.6	-2.6	-4.1	-0.4
COc1cc(-c2nnc(COC(=O)C3c4ccccc4Oc4ccccc43)o2)cc(OC)c1OC	13.6%	-18.6	16.6	2.9	-0.4
CCN(CC)Cc1c(C(=O)N/N=C/c2cccc(OCc3cccc(Cl)c3)c2)nnn1-c1nonc1N	x	x	0.2	x	0.8
O=[N+]([O-])c1ccc(N2CCNCC2)cc1N1CCCCC1	-1.4%	x	5.4	-22.9	-2.8
CC(C)(O)CCCC(C)(O)c1ccc(C(=O)O)cc1O (configuration not stated)	-3.8%	x	-6.6	x	x
O=C(CN(CCc1ccccc1)S(=O)(=O)c1ccc(Cl)cc1)N/N=C/c1ccccc1C(=O)O	-0.6%	x	0.9	6.1	3.0

Among those listed so far, three have a thiophene ring, fused or not.
SMILES	Mtb H37Rv	YopH inh	Mtb bLac sens	Arbovirus anti	RecA splice inh	others
O=C(Nn1cnnc1)c1csc2ccccc12	5.4%	-22.1	-6.6	4.0	1.8
O=C(CNC(=O)Cn1cnc2sc3c(c2c1=O)CCCC3)NCc1ccccn1	-0.6%	-2.2	3.5	3.6	0.1
Cc1ccc(CN(CC(=O)NC(C)(C)C)C(=O)CNC(=O)c2cccs2)cc1	-9.5%	x	-2.3	2.7	-0.2
